Screens (PubChem)
HNF4A DNA FP – change in binding of human HNF4 alpha to DNA; HNF4a-FITC DNA binding, fluorescence polarization, 1 h; activity change, % at 10 µM; 360,000 tested, 0.3% active; in the data active means activity change above about 30%, passing the limit was not always enough;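 further: controls were the assay level and a saturating level of protein; the project sought stronger binding though the title names inhibitors; some compounds called inactive have numbers as strong as hits; positive values seem to mean higher polarization but the record does not say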
Beta2AR agonist – activates human beta-2 adrenergic receptor causing internalization | P07550 | Am2.2-beta2AR cells, FAP receptor internalization, flow cytometry; reference of the scale not given here | 340,000 tested, 0.43% active | response, % (concentration not given with the values);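 active means response above a set limit, near 3 SD of response in nonfluorescent compounds, cut at about 42% in these data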;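 further: stock transfer was 100 nL into about 11 µL; a reference agonist was the positive control; negative values mostly stem from fluorescent compounds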
LANA-H2B inh – blocks KSHV LANA binding to histone H2A/H2B; Q9QR71; cell-free LANA-H2A/H2B peptide, fluorescence polarization; inhibition, % (concentration not given with the values); 320,000 tested, 0.6% active; in the data active means inhibition mostly above about 10%, no sharp cut-off; inactive means mostly below about 6.7%;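 further: stock transfer was 7.5 nL into about 10 µL; 0% = median of vehicle wells and 100% = median of positive control wells; one replicate is shown; the record names a cut of 25% in any replicate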
UCH37 inh – blocks the human deubiquitinase UCH37; Q9Y5K5; 330,000 tested, 0.33% active; inhibition, % (test concentration not listed); AID 588478; purified proteasome/UCH37, Ub-AMC cleavage fluorescence;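 active means mean of two replicates above 20%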;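 further: 0% = compound-free wells with enzyme and 100% = wells lacking proteasome; stock transfer was 100 nL into about 20 µL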
Target sequence (Q9Y5K5 whole entry, looked up): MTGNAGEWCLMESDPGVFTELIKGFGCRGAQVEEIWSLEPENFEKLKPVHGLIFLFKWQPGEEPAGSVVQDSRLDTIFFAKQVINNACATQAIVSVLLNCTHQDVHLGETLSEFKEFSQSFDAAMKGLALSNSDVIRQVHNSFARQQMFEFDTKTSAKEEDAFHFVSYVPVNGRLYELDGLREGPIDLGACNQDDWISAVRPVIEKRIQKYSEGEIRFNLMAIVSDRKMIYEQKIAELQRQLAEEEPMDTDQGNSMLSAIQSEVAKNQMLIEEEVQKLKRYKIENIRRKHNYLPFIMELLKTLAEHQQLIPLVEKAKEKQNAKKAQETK
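Material: Human UCH37 enzyme supplied as purified proteasome complex | Schedule: 30 min preincubation with enzyme, 25 min cleavage at room temperature | Detection: AMC fluorescence 355/460 nm | Measure: % inhibition of Ub-AMC cleavage fluorescence | Controls: Wells without proteasome as full block, compound-free enzyme plus substrate as uninhibited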
FGF22 binding – FGF22 (human) thermal shift binding | calls only at 9.99 µM | recombinant FGF22 thermal shift, SYPRO orange fluorescence; percent of sucrose octasulfate shift, DMSO zero | 340,000 tested, 1.5% active | Q9HCT0 | AID 651658;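 active means melting point raised past a set limit in the mean and every replicate; three in four hits are not shown here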
Target sequence (Q9HCT0 whole entry, looked up): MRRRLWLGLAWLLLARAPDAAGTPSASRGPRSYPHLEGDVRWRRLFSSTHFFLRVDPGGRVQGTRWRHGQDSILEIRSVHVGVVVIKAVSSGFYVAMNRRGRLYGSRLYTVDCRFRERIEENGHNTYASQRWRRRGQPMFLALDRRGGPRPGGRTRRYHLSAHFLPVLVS
Ecoli growth – E. coli growth inhibition; Escherichia coli growth, OD600, 23 h; active compounds read low; OD600 absorbance (test concentration not listed); 330,000 tested, 0.21% active; AID 1053175;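 active means OD600 absorbance below the run mean of sample wells minus 3.6 SD, in any replicate, cut at about 0.56 in these data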;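 further: stock transfer was 300 nL into about 60 µL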
ALR inh – inhibitors of human sulfhydryl oxidase ALR. inhibition, % (no concentration beside the values). 290,000 tested, 3.8% active. purified ALR, DTT oxidation, H2O2 HRP-luminol luminescence. P55789. AID 485317;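 active means mean and each replicate at 75% or more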;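 further: stock transfer was 7.5 nL into about 7.5 µL; 0% = neutral wells and 100% = wells with inactivated enzyme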
Target sequence (P55789 whole entry, looked up): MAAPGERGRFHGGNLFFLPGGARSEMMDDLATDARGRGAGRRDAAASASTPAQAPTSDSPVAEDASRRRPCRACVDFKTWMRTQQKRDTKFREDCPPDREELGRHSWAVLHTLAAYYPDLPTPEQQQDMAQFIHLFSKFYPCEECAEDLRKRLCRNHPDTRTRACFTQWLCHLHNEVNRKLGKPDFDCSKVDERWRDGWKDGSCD
Starred values were filed as active, the others as inactive; i = inactive; · = no result given; + = active, no number.

SMILES	HNF4A DNA FP	Beta2AR agonist	LANA-H2B inh	UCH37 inh	FGF22 binding	Ecoli growth	ALR inh
CCCc1nc2ccc(NC(=O)c3cccs3)cc2c(=O)n1Cc1ccccc1Cl	1.9	9	6.1	·	i	·	-13
Cc1ccc(C)c(N(CC(=O)N/N=C/c2ccc(-c3ccc([N+](=O)[O-])cc3)o2)S(=O)(=O)c2ccccc2)c1	93*	12	-1.1	·	i	·	-9
Cn1c(CNc2ccc(O)cc2)nc2ccccc21	-3.1	0	0.3	1.8	i	0.65	99*
CC1CCCCC1NC(=O)c1cc2c(s1)CS(=O)(=O)C2 (centres undefined)	-6.4	-2	-0.1	1.5	·	0.68	-3
Cc1ccc(Oc2ncccc2NC(=O)CCCC(=O)O)c2c1CCC2	-2.3	7	-6.4	0.0	i	0.67	-8
Cc1ccc(-c2csc(N3CCC(C(N)=O)(N4CCCCC4)CC3)n2)cc1	1.6	12	-0.6	0.8	i	0.72	·
CCC1C(O)=C(c2ccccn2)C(=N)N1c1ccccc1 (centres undefined)	1.3	5	-6.0	-5.1	·	0.68	-10
CC(=O)Nc1ccc(C(=O)CN2CCN(c3ccccc3)CC2)cc1	19	0	-6.3	2.8	i	0.7	1
O=C(Nc1cccc(S(=O)(=O)N2CCCCC2)c1)C1=NN(c2ccccc2)C(=O)CC1	-1.9	8	3.1	3.3	+	0.69	-3
O=[N+]([O-])c1cccc(NC(=S)NCCc2ccccc2)c1	-0.5	2	-4.9	-1.4	i	0.68	-2
O=C(NCc1ccc(F)cc1)c1cc2c(s1)CS(=O)(=O)C2	-3.0	-3	0.6	-1.8	i	0.69	-11
COc1cc(C(=S)N2CCC(Cc3ccccc3)CC2)ccc1OCC(N)=O	-0.1	-3	0.8	4.7	i	0.69	-2
COc1cc(/C=N/n2c(C)nnc2C)cc(OC)c1OC	-1.3	-2	0.5	·	·	·	-2
O=C(Nc1ccc(Br)cc1)c1cnc[nH]1	7.0	4	-0.7	2.2	i	0.64	6
O=C(CCCN1C(=O)/C(=C/c2ccco2)SC1=S)Nc1cccc(C(=O)O)c1	-41	-7	16	9.5	i	0.72	-11
Cc1c(OCc2nn[nH]n2)ccc2c(-c3ccccc3)cc(=O)oc12	0.7	15	2.1	-3.9	·	0.68	-32
COCCNC(=O)CN(C(=O)CCC(=O)Nc1ccccn1)c1ccccc1F	2.8	0	-3.3	-1.0	·	0.72	1
Cc1nc(CC(=O)N2CCN(S(=O)(=O)c3ccccc3C#N)CC2)cs1	5.1	9	3.3	0.9	·	0.71	-8
COc1ccc2cc(C(=O)C3CCCN(C(=O)c4csnn4)C3)ccc2c1 (centres undefined)	-0.6	-9	0.1	-438	i	0.68	-7
S=C(Nc1ccc2nccnc2c1)N1CCCC1	5.8	-2	-6.0	2.9	i	0.67	-45
O=C(CC(C(=O)O)c1ccc(Cl)cc1Cl)c1ccc(Cl)cc1 (centres undefined)	5.1	-11	0.7	7.5	i	0.69	3
CCN1CCN(C(=O)C(NS(=O)(=O)c2ccc3nc(C)sc3c2)C(C)C)CC1 (centres undefined)	-0.1	5	-2.9	4.6	i	0.75	92*
COC(=O)[C@]1(C)N[C@H](c2ccc(-c3ccc(OC)cc3)cc2)[C@@H]2C(=O)N(C)C(=O)[C@@H]21	-3.1	3	-6.9	0.0	i	·	-10
CC(C)(C)OC(=O)N1CCC(c2c(C(=O)NCC3CCN(C4CCCC4)C3)cnn2-c2cccc(Cl)c2)CC1 (centres undefined)	3.8	8	2.9	3.0	i	0.64	0
CC(OC(=O)c1cc(S(=O)(=O)N2CCOCC2)ccc1Br)C(=O)N1CCOCC1 (centres undefined)	3.6	1	-1.1	2.6	i	0.66	-14
CNC(=O)c1ccsc1NC(=O)c1coc2ccccc2c1=O	6.2	-9	0.9	6.4	i	0.67	38
COc1cc(/C(C)=N/NC(=O)c2nnn(-c3nonc3N)c2-c2cccs2)ccc1O	1.1	4	2.6	·	i	·	-3
CCSc1ccccc1C(=O)N1CCN(Cc2ccc3c(c2)OCO3)CC1	1.6	5	7.3	2.6	·	0.67	5
Cc1ccc(S(=O)(=O)N(C)C)cc1NC(=O)COC(=O)Cc1ccc(Br)cc1	2.0	2	0.2	2.8	i	0.74	-5
COC(=O)[C@@H]1C[C@@]2(O)[C@@H](O)[C@@H](O)[C@@H](O)C[C@H]2N1C/C=C/c1ccccc1	-1.0	12	2.0	1.1	i	·	·
COc1ccc(-n2nnnc2SCC(=O)Nc2ccc3c(c2)OCCO3)c(OC)c1	2.0	11	2.2	4.2	·	0.67	10
NC(=O)CC(NC(=O)Cc1ccc(Br)cc1)c1ccc(N2CCN(c3ccc(F)cc3)CC2)c([N+](=O)[O-])c1 (centres undefined)	-1.5	10	6.4	4.0	·	0.73	2
O=C(N/N=C/c1ccc([N+](=O)[O-])cc1)c1cccs1	-2.2	-2	6.2	·	i	·	·
Cn1cc(C(=O)c2cccc(Cl)c2Cl)cc1C(=O)O	-1.4	6	0.8	6.4	·	0.66	1
COc1ccc(/C(O)=C(\C#N)c2nc3ccccc3n2C)cc1OC	-0.3	-17	-5.3	·	·	·	-6
Cc1oc(-c2ccccc2Cl)nc1CS(=O)(=O)CC(=O)NC1CCCC1	-0.3	0	0.9	0.8	i	0.73	98*
COc1ccccc1NC(=O)C(C)OC(=O)C1CCN(S(=O)(=O)c2ccc(C)c(C)c2)CC1 (centres undefined)	-1.6	6	-0.6	·	i	·	0
CC(=O)c1c(C)[nH]c(C(=O)NC(C)c2ccccc2)c1C (centres undefined)	3.9	3	1.4	-0.3	i	0.65	-8
Clc1ccc2c(c1)C(C1=NCCN1)c1ccccc1CS2 (centres undefined)	-0.2	5	-2.2	3.6	·	0.68	4
Cc1ccc(C(=O)OCC(=O)Nc2ccc3c(c2)OCO3)o1	1.1	7	2.1	2.8	·	0.71	-8
Cc1cc(C)n2nc(SCC(=O)Nc3ccc(F)c(F)c3F)nc2n1	0.4	-4	-0.4	-1.1	i	0.68	·
COc1cc(NC(=O)c2ccc(N3CC4CC(C3)c3cccc(=O)n3C4)c(NC(=O)c3ccncc3)c2)cc(OC)c1OC (centres undefined)	2.1	0	-6.5	4.7	i	0.7	-5
O=S(=O)(Cc1ccccc1)N1CCn2c(nc3ccccc32)C1	-4.2	-11	-4.3	4.4	i	0.78	·
COc1ccc(N/C=C(/C(C)=O)c2ccccc2)cc1	-2.1	-3	-0.1	7.1	·	0.73	84*
Cc1ccc(-c2nnc(SCC(=O)Nc3ccc(N4CCOCC4)cc3)o2)cc1	-0.7	7	1.8	0.9	·	0.67	4
Cc1ccc(-c2nc(-c3cccnc3)no2)cc1	-1.2	1	6.6	3.8	·	0.7	-6
Cc1onc(-c2c(Cl)cccc2Cl)c1C(=O)ONC(=O)c1ccccc1	0.5	15	5.1	4.4	i	0.67	-3
CCN1CCCC1CNC(=O)C(=O)NCc1ccccc1 (centres undefined)	-0.4	-2	-2.5	1.3	·	0.74	-27
CCC(=O)c1ccc(OCC(=O)Nc2cc(S(=O)(=O)N3CCCCC3)ccc2OC)cc1	0.3	17	-0.4	3.3	i	0.74	-1
COc1ccc(CCn2c(=O)[nH]c3cc(C(=O)NCCN4CCOCC4)ccc3c2=O)cc1OC	2.5	69*	5.1	3.3	·	0.71	-2
CCCOc1cc(C)c(S(=O)(=O)NCc2cccs2)cc1C	2.3	·	-1.5	5.8	i	0.69	-8
COCCC(=O)N1CCCC(C(=O)c2ccc(Oc3ccccc3)cc2)C1 (centres undefined)	0.3	-23	3.5	4.0	i	0.63	-13
N#Cc1cnn2c(N)c(-c3ccc(Cl)cc3)cnc12	4.6	-2	0.2	-29	i	0.71	-12
COc1ccccc1NC(=O)C1(c2ccccc2)CCCC1	-1.1	-4	-2.7	-2.5	i	0.7	-18
COc1ccc(N2C(=O)CC(N3CCN(c4ccccc4)CC3)C2=O)cc1 (centres undefined)	-1.2	6	2.5	1.8	i	0.69	10
Cc1ccc(S(=O)(=O)Nc2ccc(C(=O)OCC(=O)N(CCC#N)c3ccccc3)cc2)cc1C	1.8	9	2.8	3.1	·	0.66	1
Cc1cc(NC(=O)/C=C/C(=O)N(CC(=O)NC2CCCC2)c2cccc3ccccc23)no1	-1.3	0	-0.5	4.2	i	0.72	-10
CCc1cc2cc(C(=O)N3CCN(Cc4ccccc4)CC3)sc2s1	2.1	7	-3.5	·	·	·	-2
COc1ccc(C2=NOC3(CC(=O)N(c4ccc(F)cc4)C3=O)C2)c(OC)c1 (centres undefined)	2.2	5	3.1	2.0	·	0.71	2
COc1cc(/C=C/c2ccc3c([N+](=O)[O-])cccc3n2)ccc1OCC(=O)O	-2.7	-7	5.4	18	i	0.67	·

Following part
SMILES	HNF4A DNA FP	Beta2AR agonist	LANA-H2B inh	UCH37 inh	FGF22 binding	Ecoli growth	ALR inh
Cc1nn2c(NCc3cccnc3)c3c(nc2c1-c1ccccc1)CCC3	-0.6	-6	5.1	-33	i	0.62	·
Cc1cccc(C)c1NC(=O)CN(C)C(=O)C1CC1C (centres undefined)	-2.7	-1	·	·	i	·	·
CCOc1ccc(NCC(=O)N/N=C/C=C/c2ccccc2)cc1	-1.6	5	0.8	·	i	·	-4
CC(=O)NCCc1nc2cc(NC(=O)COc3ccc(C)cc3)ccc2n1C	0.3	-1	5.4	3.9	i	0.66	3
Cc1cc(C)n2nc(SCC(=O)NC3CCCC(C)C3C)nc2n1 (centres undefined)	0.0	-5	1.6	2.6	i	0.65	·
CC(=O)c1cccc(S(=O)(=O)N2CCC(C(=O)N(C)Cc3ccc(Cl)s3)CC2)c1	-1.3	-7	2.3	-0.6	i	0.66	·
COC(=O)c1c(NC(C)=O)sc2c1CCN(Cc1ccccc1)C2	3.4	-1	-1.0	4.6	i	0.75	-27
O=C(CSc1cn(CCNC(=O)c2ccccc2F)c2ccccc12)NCC1CCCO1 (centres undefined)	-0.2	10	-1.8	-0.8	i	0.66	11
O=C1C2CCCN2C(=O)N1CCN1CCN(CCO)CC1 (centres undefined)	-2.0	-3	1.2	-0.7	i	0.71	8
CSc1ccc(C2NC(=O)CCC2[N+](=O)[O-])cc1 (centres undefined)	-4.1	41	-1.4	0.5	i	0.7	9
Cc1sc2ncnc(N3CCC(C(=O)Oc4cccc(Cl)c4Cl)CC3)c2c1C	0.9	4	·	-0.4	i	0.69	-4

Only part of the results is shown. The share of hits here may be higher or lower than overall.
